# Mtb betalactam = beta-lactam sensitization of Mtb H37Rv, H37Rv; M. tuberculosis H37Rv growth with meropenem, percent inhibition; hits of this screen are not shown here; inhibition, % at 25 µM; 330,000 tested, 0.27% active; AID 434955, 2010;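 active = about 74% or more and at least 40 points above the plate without the antibiotic, then above 30% in a dose series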;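 note: growth measured after seven days incubation then overnight dye step; 0% = bacteria only wells and 100% = bacteria with antibiotic; twin plates without the antibiotic show which effects depend on it; some results filed as inactive read as strong as hits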
# * marks the source's active call; other numbers are inactive results. An excerpt. The share of hits here may be higher or lower than overall.
# Start of the listing, in advance (2 entries):
SMILES,Mtb betalactam
C=CC[C@@H](CC(=O)N[C@@H](CO)Cc1ccccc1)C(=O)N[C@H](COC(=O)[C@@H](CC=C)Cc1ccc(F)cc1)C(C)(C)C,-2
CN(C)S(=O)(=O)c1cccc(NC(=O)/C=C/c2ccc(S(=O)(=O)N3CCOCC3)cc2)c1,0

# The whole of this part, from the first entry:
SMILES,Mtb betalactam
C=CC[C@@H](CC(=O)N[C@@H](CO)Cc1ccccc1)C(=O)N[C@H](COC(=O)[C@@H](CC=C)Cc1ccc(F)cc1)C(C)(C)C,-2
CN(C)S(=O)(=O)c1cccc(NC(=O)/C=C/c2ccc(S(=O)(=O)N3CCOCC3)cc2)c1,0
OCc1ccc2c(c1)c(-c1ccc3c(c1)OCCO3)c(-c1ccccc1)n2-c1ccccc1,72
CC(C)Oc1ccc(S(=O)(=O)N2CCOCC2)cc1NC(=O)C1COc2ccccc2O1 (stereo not given),4
CC(C)(Oc1ccc(C2CC2(Cl)Cl)cc1)C(=O)O (stereo not given),1
CC1CN(S(=O)(=O)c2cc(C(=O)NCc3ccncc3)ccc2Cl)CC(C)O1 (stereo not given),-7
CC(C)C[C@H]1CN=C(Nc2ccccc2)N1CCc1ccc(F)cc1,-2
O=C(Cn1cc(C(F)(F)F)ccc1=O)N1CCc2ccccc21,-4
CC(C)OCc1ccc(C(=O)N2CCN(CC(=O)N3CCCC3)CC2)cc1,0
COc1ccc(NC(=O)/C(N=Nc2ccc(Cl)c(S(=O)(=O)Nc3ccc(Cl)cc3)c2)=C(\C)O)cc1,8
Cc1ccc(C)c(S(=O)(=O)NCCCc2ccccc2)c1,-6
CC(=O)NCc1ccc(C(=O)COC(=O)COc2ccc(Cl)c(C)c2)s1,5
COc1ccccc1NS(=O)(=O)c1cccc(C(=O)NCC(c2ccco2)N2CCCC2)c1 (stereo not given),-5
COc1ccc(S(=O)(=O)N(C)C[C@H]2Oc3ccc(NC(=O)Cn4cnnn4)cc3C(=O)N([C@H](C)CO)C[C@@H]2C)cc1,-3
C=CC[C@H](CC(=O)NCCO)C(=O)N[C@H](COC(=O)[C@@H](CC=C)Cc1ccc(F)cc1)Cc1ccccc1,-2
CCOC(=O)C1CCCN(S(=O)(=O)NC[C@H]2O[C@@H](n3cnc4c(N)ncnc43)[C@H](O)[C@@H]2O)C1 (stereo not given in full),-2
N#CC1(NC(=O)COc2cccnc2[N+](=O)[O-])CCCCC1,0
COC(=O)[C@H]1[C@H]2C[C@@H]3c4[nH]c5cc(OC)ccc5c4CCN3C[C@H]2C[C@@H](OC(=O)c2cc(OC)c(OC)c(OC)c2)[C@@H]1OC,86
CC(C)N(Cc1nc2ccccc2c(=O)[nH]1)C(=O)c1ccc(NC(=O)CSc2nnnn2C)cc1,3
Cc1ccc(-n2nnnc2SCC(=O)c2c(N)n(C3CC3)c(=O)[nH]c2=O)cc1,-4
CCCc1ccc2oc(C(=O)N3CCCC3)c(C)c2c1,2
CCOc1ccc(S(=O)(=O)N2CCN(C(=O)c3cc4ccccc4o3)CC2)cc1,-8
COc1ccc(CC(=O)OCC(=O)NNC(=O)c2ccccc2)cc1,3
O=C(COc1ccc(C(=O)c2ccc(F)cc2)cc1)Nc1cccc(S(=O)(=O)N2CCOCC2)c1,93
Nc1ncnc2c1ncn2[C@@H]1O[C@H](CNCc2ccccc2)[C@@H](O)[C@H]1O,-11
CCc1ccc(/C=C(\C#N)C(=O)NC2CCS(=O)(=O)C2)cc1 (stereo not given),1
O=C(CCCc1c[nH]c2ccccc12)NCCc1c[nH]c2ccccc12,-1
CC(C(=O)Nc1ccc2c(c1)OCO2)n1cnc2c1c(=O)n(C)c(=O)n2C (stereo not given),-3
C[C@H](CO)N1C[C@H](C)[C@@H](CN(C)Cc2ccc(C(=O)Nc3ccccc3N)cc2)Oc2c(NC(=O)C3CCCCC3)cccc2C1=O,-2
CC1CC(C)(C)CC2(C1)NC(=O)N(CC(=O)N1CCN(S(=O)(=O)c3cccc(F)c3)CC1)C2=O (stereo not given),-2
CC1(c2ccc(Cl)cc2)NC(=O)N(CC(=O)NC2CCCCC2)C1=O (stereo not given),-5
O=C1c2ccccc2NC(c2ccc(Br)o2)N1O (stereo not given),-7
O=C(NCc1ccccc1)c1nc[nH]c1C(=O)N1CCc2ccccc2C1,5
CCOc1cc(/C=C2\C(=N)N3N=C(C)SC3=NC2=O)ccc1OCCOc1ccccc1,3
Cc1ccc(NC(=O)CCc2ccc(S(=O)(=O)N3CCOCC3)cc2)c(Cl)c1,-6
O=C(C1CCN(S(=O)(=O)c2ccc(Cl)c(C(F)(F)F)c2)CC1)N1CCC1,-2
CCOC(=O)c1ccc(S(=O)(=O)N2CCN(Cc3cc4c(cc3O)OCO4)CC2)cc1,-3
COc1ccccc1CCC(=O)Nc1ccc(OC)c(S(=O)(=O)N2CCCCC2)c1,-1
COc1ccc(S(=O)(=O)N2CCCCC2)cc1NC(=O)c1ccc(CS(C)(=O)=O)cc1,8
CCC(=O)c1ccc(OCC(=O)OCC(=O)N2CCc3ccccc3C2)cc1,-3

# Shown with each value named: entries from further up.
Compound: O=C(COc1ccc(C(=O)c2ccc(F)cc2)cc1)Nc1cccc(S(=O)(=O)N2CCOCC2)c1
- Mtb betalactam: 93
Compound: Nc1ncnc2c1ncn2[C@@H]1O[C@H](CNCc2ccccc2)[C@@H](O)[C@H]1O
- Mtb betalactam: -11
Compound: CCc1ccc(/C=C(\C#N)C(=O)NC2CCS(=O)(=O)C2)cc1 (stereo not given)
- Mtb betalactam: 1
Compound: O=C(CCCc1c[nH]c2ccccc12)NCCc1c[nH]c2ccccc12
- Mtb betalactam: -1

# Retrieved by structure from the list above, 2 records:
SMILES,Mtb betalactam
CCOC(=O)c1ccc(S(=O)(=O)N2CCN(Cc3cc4c(cc3O)OCO4)CC2)cc1,-3
CCOc1ccc(S(=O)(=O)N2CCN(C(=O)c3cc4ccccc4o3)CC2)cc1,-8

# Later entries.
SMILES,Mtb betalactam
CCN(c1ccccc1)S(=O)(=O)c1cccc(C(=O)OCC(=O)Nc2ccc(NC(C)=O)cc2)c1,7
C/C(O)=C(\C#N)C(=O)Nc1cc(Br)ccc1Br,3
O=C(OC1CCOC1=O)c1cc(S(=O)(=O)N2CCOCC2)c(Cl)cc1Cl (stereo not given),-11
CC1CCCCC12NC(=O)N(CC(=O)N(C)Cc1nc3ccccc3c(=O)[nH]1)C2=O (stereo not given),2
COc1cc(OC)cc(-c2c(C#Cc3ccsc3)c3cc(-c4ccc(N(C)C)nc4)ccc3n2C)c1,2
CCc1ccccc1NC(=O)CN1CCN(C(=O)CN2C(=O)NC3(CCCC3)C2=O)CC1,0
CCOC(=O)C1CCCN(c2nc3ccccc3nc2NS(=O)(=O)c2ccc(C)cc2)C1 (stereo not given),-3
CCCN(CC(=O)Nc1ccccc1C)C(=O)c1cc(C)oc1C,-6
COc1ccc(/C=C/c2nc(C#N)c(NCCN(C)C)o2)cc1OC,0
Cc1ccc(C)c(NC(=O)CN(C)C(=O)C2=NNC(=O)CC2)c1,-4
O=C(O)c1cccc(S(=O)(=O)N2CC=C(c3ccccc3)CC2)c1,-5
CN(CC(=O)NCCc1ccc(S(N)(=O)=O)cc1)CC(=O)Nc1ccc(Cl)cc1,0
CCOC(=O)c1c(C)[nH]c(C(=O)C(C)OC(=O)c2cnc(C)cn2)c1C (stereo not given),-7
COc1nc(N(C)C)nc(N(C#N)S(=O)(=O)c2ccc(C)cc2)n1,-3
CN(CC(=O)Nc1ccccc1C(F)(F)F)C(=O)COc1ccccc1Cc1ccccc1,-4
Cc1cc(C)cc(N(CCC#N)C(=O)CSc2ncnc3sccc23)c1,-9
COc1ccc(-c2ccc3c(c2)S(=O)(=O)c2cccc(C(=O)NC4CCCCC4)c2C3=O)cc1OC,-2
O=C(CSC(=S)N1CCCC1)N/N=C/c1c(O)[nH]c(=S)[nH]c1=O,3
CC(=O)C(Cc1ccccc1)NC(=O)COC(=O)c1cccc(C)c1[N+](=O)[O-] (stereo not given),-9
O=S(=O)(c1ccc2c(c1)CCCC2)N1CCNCC1,13
CCc1cc(Cn2nc(-c3ccccc3C)cc2C(=O)O)on1,-4
O=C(COC(=O)C1CCN(C(=O)c2ccc(Cl)cc2)CC1)Nc1ccccc1F,1
CCc1ccc(OCc2nnc(-c3ccccc3Br)o2)cc1,1
CC(=O)N1CCN(c2ccc(S(=O)(=O)N3CCOCC3)cc2[N+](=O)[O-])CC1,-4
Cc1cc(C)c(C(=O)CSc2nnc(N)s2)cc1C,-8
Cc1ccc2nc(C)cc(C(=O)NC3CCCCCC3)c2c1,-1
O=C(OCC(=O)N1CCCCC1)c1cc(S(=O)(=O)N2CCOCC2)c(Cl)cc1Cl,-3
COc1ccccc1N(CCC#N)C(=O)CSc1nnc2ccccn12,2
C#CCOCCOCCOCCNc1nc(N2CCN(C(=O)[C@H](CCC(=O)O)n3cc([C@@H](N)CCCCN)nn3)CC2)nc(N2CCN(C(=O)[C@H](CCCCN)n3cc([C@@H](N)CC(N)=O)nn3)CC2)n1,-11
CC1(C)O[C@@H]2[C@H](O1)[C@@H](CO)O[C@H]2n1cnc2c(N)ncnc21,3
Cc1ccc(NC(=O)C(c2ccccc2)N2CCN(CC(=O)N3CCOCC3)CC2)cc1Cl (stereo not given),-4
COCC(=O)Nc1ccc(N2CCOCC2)c(S(=O)(=O)Nc2ccccc2OC)c1,-3
CSc1ccc(Cl)c(C(=O)Nc2cc(S(=O)(=O)N3CCOCC3)ccc2N2CCOCC2)c1,2
C[C@H](CO)N1C[C@H](C)[C@@H](CN(C)C(=O)Nc2ccc3c(c2)OCO3)Oc2c(NC(=O)c3ccncc3)cccc2C1=O,-8
O=S(=O)(NCC1CCC(NS(=O)(=O)c2c(F)cccc2F)CC1)c1ccc2c(c1)OCCO2 (stereo not given),5
CCN(c1ccccc1)S(=O)(=O)c1ccc(N2CCN(c3ccc(OC)cc3)CC2)nc1,-10
CCn1c(CNC(=O)c2ccco2)nnc1SCCOc1ccccc1,-7
COc1ccc2oc(C(=O)NC(C)c3ccccn3)c(C)c2c1 (stereo not given),-2
Cc1noc(C)c1COc1ccc(C(=O)N2CC(C)CC(C)C2)cc1 (stereo not given),-1
C=C(C(=O)Oc1c(C(C)(C)C)cccc1C(C)(C)C)c1ccccc1,3
CNS(=O)(=O)c1cccc(C(=O)NCC2(N3CCCCC3)CCCCC2)c1,0
CC(C)C[C@@H](CO)N(Cc1ccccc1)S(=O)(=O)N(Cc1ccccc1)[C@@H](CO)CC(C)C,-8
Cc1cccc(N2CC(C(=O)Nc3ccc(N4CCOCC4)cc3)CC2=O)c1C (stereo not given),-4
O=C(NC1CCCCC1)c1cccc2c1C(=O)c1ccc(N3CCC(Cc4ccccc4)CC3)cc1S2(=O)=O,1
COc1cccc(/C=N/NC(=O)CN(C)S(=O)(=O)c2ccccc2)c1OC,-7
NC(=O)C1CCN(C(=O)c2cc(-c3ccccc3Cl)nc3ccccc23)CC1,-6
COc1ccc(CCC(=O)Nc2ccc(S(=O)(=O)Nc3ncccn3)cc2)cc1,2
COc1ccc(SC[C@H](C)CN2CC[C@H](NC(=O)OCc3ccccc3)CCC2=O)cc1,4
COc1ccc(S(=O)(=O)N2CCN(CC(=O)Nc3cc(Cl)ccc3Cl)CC2)cc1,1
CCN(CC(=O)Nc1cccc(S(=O)(=O)N(C)c2ccccc2)c1)Cc1ccccc1,6
COc1ccccc1NS(=O)(=O)c1ccc(C)c(C(=O)NC2=NCCS2)c1,1
CCCN(C(=O)c1ccc(S(=O)(=O)N2CCCC2)cc1)C1CCS(=O)(=O)C1 (stereo not given),-4
Cc1ccc(C)c(S(=O)(=O)N2CCN(C(=O)CCC(=O)NCc3ccc(Cl)cc3)CC2)c1,-1
CCC/C(C#CCCN1C(=O)c2ccccc2C1=O)=C1/c2ccccc2C(=O)N1c1ccccc1,3
COc1ccc(-c2c(-c3cc(OC)cc(OC)c3)n(C)c3ccc(-c4ccc(N(C)C)nc4)cc23)cc1,-1
NC(C(=O)O)c1cc(=O)[nH]o1 (stereo not given),-3
O=C(COC(=O)c1ccc(S(=O)(=O)N2CCCC2)cc1)Nc1cccc(F)c1,2
COc1ccc(CC(=O)OCC(=O)NC(=O)NC2CCCC2)cc1,-2
O=C(CN1CCN(S(=O)(=O)c2ccccc2F)CC1)NCC1(N2CCOCC2)CCCCC1,-10
O=C(CCC(=O)c1ccc(Cl)cc1)OCn1nnc2ccccc2c1=O,29
# Carrying on.
SMILES,Mtb betalactam
CN1CCC(=NNC(=O)CN(c2ccccc2)S(=O)(=O)c2ccccc2)CC1,-6
O=C(COC(=O)c1ccco1)NC1CCCC1,-4
CCC(CO)Oc1cc(NCc2ccccc2Cl)c2ncn(C(C)C)c2c1 (stereo not given),20
Cc1cc(C)cc(NC(=O)COC(=O)COc2ccc(N(C)S(=O)(=O)c3cccs3)cc2)c1,-3
O=C(O)c1cc(O)ccc1NC(=O)C1CCCO1 (stereo not given),-16
Cc1cc(C)cc(N)c1,5
O=C(O)c1cc2c(cc1NC(=O)C1CCCC1)OCCO2,-7
CCN1C(N(C)C)=NC[C@@H]1Cc1ccccc1,-7
CC1CCCCC1NC(=O)c1cc(S(=O)(=O)N2CCOCC2)ccc1Cl (stereo not given),-5
COc1ccc(S(=O)(=O)N2CCN(C(=O)CCOc3ccccc3)CC2)cc1OC,1
CC(Oc1ccccc1)C(=O)N1CCN(c2ncccn2)CC1 (stereo not given),2
